Screening results: PubChem, several laboratories
Calb FLC = C. albicans growth inhibition with fluconazole, primary screen, CaCi-2 strain, Alamar Blue fluorescence | C. albicans CaCi-2 (fluconazole-resistant clinical isolate) + fluconazole, 48 h | growth inhibition, % (concentration not given with the values) | 300,000 compounds, 0.57% hits | AID 1979, 2009;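 active means most replicates above 75%; inconclusive means exactly half above 75%; inactive means most below 75%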;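 further: all wells also contain fluconazole at 8 µg/ml as a sub-toxic cotreatment; 0% = median of DMSO wells and 100% = median of geldanamycin control wells; wells of about 8 µL received 7.5 nL stock; the first replicate is given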
MLL AF4-AF9 inh = inhibitors of AF4 peptide binding to AF9, primary screen, biochemical, AlphaScreen, biotin-AF4 peptide, FLAG-AF9, single point; inhibition, % at 10 µM; AID 651704, 2012; 350,000 compounds, 0.47% hits;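 active means every replicate reaching a set inhibition limit, whatever the replicate mean, cut at about 25% in these data; inconclusive means mean inhibition reaches that limit but some replicates miss it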;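 further: 0% = plate neutral control median and 100% = total signal loss; the record names both 10 and 1 µM as test concentration; the first replicate is given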
T cruzi inh = inhibitors of intracellular T. cruzi growth, primary screen, luminescence, NIH3T3 host cells; inhibition, % (test concentration not listed); 300,000 compounds, 1.4% hits; T. cruzi beta-gal in NIH3T3, 90 h;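 active means mean inhibition across valid replicates above about 55%, limit read from the data; inconclusive means mean below that limit but half or more replicates reach it; inactive means mean below it, under half of replicates reach it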;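 further: signal also drops with host cell toxicity which is not excluded here; 0% = plate median of DMSO wells and 100% = zero luminescence signal; higher percent means less beta-gal luminescence so fewer parasites; stock transfer was 50 nL into about 50 µL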
Beta cell apopt = inhibitors of cytokine-induced beta cell apoptosis, primary screen, luminescence; protection from apoptosis, % (no concentration beside the values); INS-1E cytokine-induced death, ATP luminescence, 48 h; percent of positive-control rescue, neutral wells zero; AID 435005, 2010; 300,000 compounds, 0.8% hits;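 active means all replicates at 75% or more, or half of them and the mean; inconclusive means half reach 75% but not the mean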;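 further: 0% = cytokine-treated negative control wells and 100% = positive control rescue; higher means more ATP so stronger rescue from cytokine killing; wells of about 40 µL received 100 nL stock; the first replicate is given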
LANA-H2B inh = blockers of LANA interaction with H2A/H2B – biochemical, FP readout, HTS, primary screen. Protein LANA1 (Human herpesvirus 8 type P (isolate GK18)), Q9QR71. cell-free LANA-H2A/H2B peptide, fluorescence polarization. inhibition, % (no concentration beside the values). 320,000 compounds, 0.6% hits. AID 2629, 2010; in the data active means inhibition mostly above about 10%, no sharp cut-off; inactive means mostly below about 6.7%;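 further: stock transfer was 7.5 nL into about 10 µL; 0% = median of vehicle wells and 100% = median of positive control wells; one replicate is shown; the record names a cut of 25% in any replicate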
Target sequence (Q9QR71 whole entry, looked up): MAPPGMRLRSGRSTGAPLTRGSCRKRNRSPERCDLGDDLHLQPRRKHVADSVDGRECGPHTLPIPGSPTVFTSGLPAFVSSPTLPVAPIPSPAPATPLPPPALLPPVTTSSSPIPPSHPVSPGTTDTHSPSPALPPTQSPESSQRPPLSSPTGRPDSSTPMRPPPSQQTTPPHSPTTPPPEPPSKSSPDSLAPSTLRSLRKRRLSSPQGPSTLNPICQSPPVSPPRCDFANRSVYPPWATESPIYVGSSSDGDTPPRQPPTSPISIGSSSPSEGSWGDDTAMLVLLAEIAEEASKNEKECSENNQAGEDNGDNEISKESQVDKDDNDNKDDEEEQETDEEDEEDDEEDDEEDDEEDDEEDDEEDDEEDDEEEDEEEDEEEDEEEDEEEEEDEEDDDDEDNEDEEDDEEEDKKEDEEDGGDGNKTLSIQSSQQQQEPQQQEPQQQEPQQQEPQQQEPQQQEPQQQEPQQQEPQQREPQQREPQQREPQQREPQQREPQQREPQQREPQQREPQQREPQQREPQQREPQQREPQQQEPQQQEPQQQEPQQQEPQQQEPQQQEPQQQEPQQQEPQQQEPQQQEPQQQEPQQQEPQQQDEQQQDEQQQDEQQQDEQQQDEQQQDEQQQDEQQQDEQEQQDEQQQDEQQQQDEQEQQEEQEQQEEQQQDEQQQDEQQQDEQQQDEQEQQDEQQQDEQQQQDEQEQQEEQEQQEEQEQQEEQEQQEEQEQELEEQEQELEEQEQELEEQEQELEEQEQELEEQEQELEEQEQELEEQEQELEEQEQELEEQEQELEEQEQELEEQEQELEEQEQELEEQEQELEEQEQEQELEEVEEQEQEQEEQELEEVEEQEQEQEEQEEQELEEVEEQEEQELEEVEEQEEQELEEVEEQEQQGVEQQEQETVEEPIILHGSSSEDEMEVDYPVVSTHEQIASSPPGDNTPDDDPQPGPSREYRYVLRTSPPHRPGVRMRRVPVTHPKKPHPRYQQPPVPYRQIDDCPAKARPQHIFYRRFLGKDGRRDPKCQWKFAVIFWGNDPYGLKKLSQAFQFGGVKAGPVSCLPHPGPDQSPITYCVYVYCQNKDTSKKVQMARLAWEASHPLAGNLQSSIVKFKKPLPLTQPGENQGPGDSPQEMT
Vif A3G = inhibitors of Vif binding to APOBEC3G peptide, primary screen, biochemical, TR-FRET, GST-Vif 1-94, biotin-A3G peptide, dose response retest (AID 1117319); TR-FRET GST-Vif / biotin-A3G peptide binding; higher % means a stronger effect; test concentration not given here; strong numbers were not always called active; 260,000 compounds, 0.57% hits; inhibition, %, or IC50 in µM where a hit was titrated;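 active means above the screen mean plus three standard deviations and confirmed in dose response; inconclusive means results disagree or hit not tested in dose response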;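 further: Vif residues 1-94 fused to GST binding biotinylated APOBEC3G peptide 110-148; 0% = full assay without inhibitor and 100% = GST in place of GST-Vif; retest series ran down from 100 µM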
RanGTP-Imp inh = inhibitors of RanGTP-importin-beta interaction, primary screen, biochemical, FRET, CFP-Ran, YFP-importin-beta, homogeneous; cell-free CFP-Ran/YFP-importin-beta FRET ratio; inhibition, % (concentration not given with the values); 300,000 compounds, 1.1% hits;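 active means most replicates above 15%; inconclusive means exactly half above 15%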;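 further: 0% = DMSO wells and 100% = Ran loaded with GDP instead of GTP; wells of about 40 µL received 100 nL stock; the first replicate is given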
A1 inh = caspase 3/7 activation in MEF A1-2A-BIM cells, primary screen, A1 inhibitor project, cell-based, luminescence, HTS | 330,000 compounds, 0.066% hits | Caspase-Glo 3/7 luminescence, 3 h; percent of clofoctol response, vehicle zero | caspase activation, % (test concentration not listed) | AID 2462, 2010;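 active means over half of replicate activation scores above 10%, or exactly half above 10 with the replicate mean above 10; inconclusive means replicate mean below 10 yet half the replicates above 10; inactive means over half of replicates below 10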;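 further: wells of about 30 µL received 50 nL stock; many hits fall short of the cut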
Active calls of the source: *; ? = inconclusive; · = not tested or not shown; & = joins results of further samples. Rows are unselected (roughly 4.3% active in at least one column).

molecule	A1 inh	LANA-H2B inh	Vif A3G	T cruzi inh	RanGTP-Imp inh	Beta cell apopt	Calb FLC	MLL AF4-AF9 inh
COc1ccc(C2C(C#N)=C(N)N(c3cccnc3)C3=C2C(=O)CCC3)cc1Cn1cc([N+](=O)[O-])cn1 (stereo not given)	-0.2	-3.6	?	-1	2.0	-1	7	·
COC(=O)CSc1nc(N)nc(C)c1Cl	-0.3	1.2	-9%	-6	2.4	0	4	-0.5
CCCCOCC(O)CN1CCN(C(C)=O)CC1 (stereo not given)	-0.8	10.0	2%	-5	1.6	-3	15	·
COc1ccc(CCN(C)CCCN2CC(c3ccccc3)CC2=O)cc1OC (stereo not given)	-2.2	-2.3	-5%	54	-2.4	-1	-17	-7.6
Cc1ccc(NC(=O)CCOc2ccccc2)cc1S(=O)(=O)Nc1ccccc1Cl	-0.2	7.7	20%	4	-10	4	-10	·
Cc1nccn1CCCNC(=O)c1nc(Cn2cc([N+](=O)[O-])cn2)no1	0.8	-3.4	-2%	3	5.8	-7	1	-19
O=C1Cc2ccccc2C(=O)N1Cc1cccc(Cl)c1	?	7.1	1%	-7	-3.2	-2	-2	-3.1
CCN1CCN(Cc2cccc(Oc3ccc(Cl)cc3)c2)CC1	-0.6	-4.5	?	?	0.2	1	-34	-20
Cc1cc(C)cc(N2C(N)=NC(N)=NC2c2ccccc2F)c1 (stereo not given)	0.1	5.2	-14%	20	-0.9	-3	-1	6.0
CC(C)Sc1nc2ccc(Br)cc2[nH]1	1.5	6.9	·	25	1.5	-4	18	-3.0
O=C(c1ccc(CNc2c(N3CCOCC3)c(=O)c2=O)cc1)N1CC=C(c2ccccc2)CC1	-0.2	-0.7	13%	·	·	-1	·	4.4
N#CC12CCCCC1CC1CCCCC1(C#N)N2N (stereo not given)	-0.6	0.0	6%	-2	-0.2	0	-9	-1.4
Cc1ccc(-c2nn(-c3ccccc3)cc2C(=O)NC2CCC(O)CC2)cc1 (stereo not given)	-1.3	-6.6	·	·	·	2	·	-2.3
CCCc1cc2c(OC(=O)CC)c(-c3ccc(C(=O)OCC)o3)c(=O)oc2cc1OC	-0.8	-2.4	4%	-1	6.1	-1	8	·
COc1ccc(C(=O)CSc2nnc(-c3ccco3)n2C)cc1	2.0	-6.5	8%	-15	-0.3	-3	2	-17
Cc1cccc(S(=O)Cc2ccc(C(=O)NC3CCN(Cc4ccccc4)CC3)o2)c1 (stereo not given)	0.0	-6.4	·	39	-0.9	4	-21	2.8
COc1ccc(N2C(=O)C3CCCN3C2c2cccc(OC)c2)cc1 (stereo not given)	0.4	-5.1	2%	2	?	-1	-4	-0.2
NS(=O)(=O)c1ccc(CCNCc2cccnc2)cc1	0.1	-7.4	·	1	3.5	-4	-2	1.0
COc1ccc(-n2nnc3c(=O)n(Cc4cccc(C)c4)cnc32)cc1	-0.7	2.5	0%	15	3.7	-13	-3	·
CCOC(=O)C1CCN(C(=O)Nc2ccc(Cl)cc2Cl)CC1	-0.2	2.2	19%	-23	4.6	-4	-15	-1.9
CCOc1ccc2nc(NCCNC(=O)C(C)(C)C)c(C)cc2c1	0.0	-2.6	·	·	·	3	-19	-1.2
NS(=O)(=O)c1ccc(NC(=O)c2ccc(S(=O)(=O)N3CCc4ccccc43)cc2)cc1	1.0	1.8	-6%	15	1.5	-3	-11	0.1
O=C(Cc1csc(-c2cccc(Cl)c2)n1)Nc1cccc(S(=O)(=O)NC2=NCCC2)c1	1.1	-3.3	4%	1	0.0	·	-20	0.4
Cc1ccccc1C(=O)NNC(=O)C1CC(=O)N(Cc2ccccc2)C1 (stereo not given)	-0.9	·	0%	-4	-3.9	-14	-12	-6.4
COc1ccc(C2C(C(=O)c3cccs3)=C(O)C(=O)N2Cc2cccnc2)cc1OC (stereo not given)	1.7	2.2	2%	-11	?	-4	-4	-0.6
O=C(CSC1=NCCS1)N1CCOCC1	0.9	-1.9	4%	-6	8.4	2	4	·
Cc1cc(=O)[nH]c(SCC(=O)NC2CCCCCCC2)n1	-0.7	-1.3	·	·	·	-1	·	-5.3
NC(=O)C1CNc2ccccc2O1 (stereo not given)	0.5	3.3	-1%	-12	5.6	·	-2	·
O=C(Cc1ccc([N+](=O)[O-])cc1)Nc1ccc(C(=O)N2CCOCC2)cc1	1.0	-2.5	·	0	6.6	-2	-3	·
COC(=O)c1ccc(C2=NOC(C)(c3nnc(-c4cccc(Cl)c4)o3)C2)cc1 (stereo not given)	-0.3	-3.2	·	1	1.6	·	2	·
CCOc1ccc(-c2nnc(SCC(=O)N3CCNC3=O)o2)cc1	-1.0	-3.1	-1%	·	·	0	·	28*
CCC(C(=O)NC1C(=O)N2C(C(=O)O)=C(CSc3nnc(C)s3)CSC12)c1ccccc1 (stereo not given)	0.9	·	-5%	·	·	-9	·	-5.0
COCCCNC(=O)Cn1cc(/C=C(\C#N)C(=O)N2CCN(c3ccccc3)CC2)c2ccccc21	-0.7	-3.2	-7%	-5	0.0	·	-4	-3.5
CCN(CC)CC(=O)c1c[nH]c2ccc(OC)cc12	2.7	7.5	-3%	8	-2.5	-2	3	·
COC(=O)c1ccc(CNC(=O)c2ccc(COc3ccccc3)cc2)cc1	0.5	3.4	·	-27	0.8	2	3	·
CSc1cccc(NS(=O)(=O)c2ccc3c(c2)CCN3C(C)=O)c1	-0.5	1.7	-1%	-14	-1.2	67	1	-2.7
S=C(Nc1ccc(Br)cc1)N1CCCC1	?	2.5	·	-18	-1.8	-2	-5	·
CC(C)(C=O)Cc1cc(C(C)(C)C)c(O)c(C(C)(C)C)c1	0.1	-3.2	·	·	·	-5	·	-0.3
CCC1(c2ccccc2)NC(=O)N(CC(=O)N(C)CC(=O)Nc2ccc(F)c(F)c2F)C1=O (stereo not given)	0.9	-5.4	-5%	1	8.6	0	·	0.1
NS(=O)(=O)c1ccc(NC2=CC(c3ccc([N+](=O)[O-])cc3)N(c3ccc(S(N)(=O)=O)cc3)C2=O)cc1 (stereo not given)	0.2	-5.0	?	2	-4.4	-5	11	2.4
Cc1nc(Nc2ccccc2O)c2oc3ccccc3c2n1	0.8	3.3	-2%	1	-5.9	-5	2	-0.7
Cc1ccc2ncnc(Oc3ncccc3NC(=O)C(C)(C)C)c2c1	0.0	0.1	·	-7	-0.3	-4	-9	1.6
COc1cc(CN2CCC(C(=O)NCC(C)(C)CN(C)C)CC2)ccc1OCc1ccccc1	0.7	-0.9	·	-2	-0.2	·	6	8.0
CCOC(=O)c1[nH]c(C)c(C(=O)NCc2ccc(C)cc2)c1C	-0.6	5.1	-2%	2	-0.1	-2	1	-1.2
Cc1cc(C(=O)Nc2cccc3cccnc23)ccc1[N+](=O)[O-]	-0.6	2.7	·	-18	0.1	2	0	1.9
COc1ccc(OC)c(NC(=O)Cc2nn(C)c(=O)c3ccccc23)c1	0.3	3.8	32%	2	1.4	3	1	·
CC(=O)Nc1cccc(-c2nc3ccccc3c(=O)o2)c1	-1.0	-0.9	5%	-2	2.4	-5	2	·
CN(CC#CC1(O)c2ccccc2-c2ccccc21)Cc1ccccc1	-0.4	-5.5	-2%	3	1.5	-7	0	·
Cc1cc(NC(=S)N(Cc2ccc(Br)cc2)Cc2ccc(C(=O)O)cc2)ccc1Cl	-0.8	-6.7	8%	14	2.3	-4	27	-2.1
O=C(CSc1nnc2scc(-c3ccc(F)cc3)n12)NCc1ccco1	-0.1	0.9	0%	8	-2.1	-5	7	·
COc1ccc(N2CCN(c3ccnc4cc(Cl)ccc34)CC2)cc1	0.0	1.6	1%	-12	4.7	9	-9	2.4
COc1ccc(CNC(=O)c2c(C)cc(=O)oc2C)cc1OC	-0.6	-1.8	8%	-14	0.9	-9	-4	·
CC1(C)CC(=O)C(C(=O)/C=C/NCCc2ccccc2)C(=O)C1	-0.1	-6.4	5%	-4	-2.1	-11	-4	·
O=c1[nH]cc([N+](=O)[O-])cc1Br	0.4	1.9	·	-13	?	-6	34	·
CCC(C)(C)n1nnnc1C(c1cc2cc(C)cc(C)c2[nH]c1=O)N1CCN(Cc2ccc3c(c2)OCO3)CC1 (stereo not given)	·	·	-31%&8%	34	6.4	·	11	·
CN(CCO)C(=O)c1c(NC(=O)c2ccccc2)sc2c1CCCC2	1.4	-0.6	-4%	15	1.3	-7	2	-3.0
O=C(Cn1nc(C(=O)O)c2ccccc2c1=O)Nc1ccc(Cl)c(S(=O)(=O)N2CCOCC2)c1	0.3	1.2	-2%	·	·	2	·	-7.0
CCCCCCc1cc2cc(-c3nnc(-c4ccccc4)o3)c(=O)oc2cc1O	-1.0	-7.7	0%	1	161*	119*	-5	·
O=C(CN(CC1CCCO1)C(=O)CNS(=O)(=O)c1ccc(Cl)cc1)NCCc1ccccc1 (stereo not given)	-0.5	-0.1	-3%	4	4.4	-2	0	5.7
COc1c[nH]n(C2CCCCC2)c(=O)c1=O	0.5	3.8	1%	-10	0.0	2	-4	·

(more compounds)
molecule	A1 inh	LANA-H2B inh	Vif A3G	T cruzi inh	RanGTP-Imp inh	Beta cell apopt	Calb FLC	MLL AF4-AF9 inh
CC(=O)NC(c1ccccc1)c1nc2ccccc2[nH]1 (stereo not given)	-0.1	0.8	3%&7%	8	0.2	1	-7	·
COc1ccc(C2=C/C(=C/c3cccnc3)C(=O)O2)cc1OC	0.5	0.5	18%	-15	-15	0	33	-6.5
CC1CCC(NC(=O)c2cccc(S(=O)(=O)N3CCN(C)CC3)c2)CC1 (stereo not given)	-0.2	4.3	4%	-16	2.1	·	-2	-12
Clc1ccc(-n2ncc3c(NCCCn4ccnc4)ncnc32)cc1	-1.3	-1.4	-9%	29	-0.3	6	7	·
CN1C(C(=O)Nc2ncccn2)=C(O)c2ccccc2S1(=O)=O	0.0	0.7	-1%	-11	1.6	-3	-6	-2.6
CCOC(=O)c1sc2nc3c(SCC(=O)O)cc(C(=O)c4ccccc4O)cn3c(=O)c2c1C	-1.4	1.8	17%	-15	-3.7	-12	5	-3.0
[N-]=C=C1C(=S)NC(=O)[C@H]([n+]2ccccc2)[C@H]1c1ccc(Cl)cc1	-0.3	-0.3	·	2	4.6	3	2	-7.0
Cc1cccc(C(=O)OCc2cc3ccccc3[nH]c2=O)c1	-0.7	1.4	-7%	-13	1.8	-3	16	·
COc1ccccc1C(CNC(=O)C(CCSC)NS(=O)(=O)c1ccccc1F)N1CCCC1 (stereo not given)	-0.6	1.9	0%	7	0.8	-7	-7	1.4
CCOc1ccc(/C=C2\SC(=S)N(CC(=O)Nc3ccccn3)C2=O)cc1	-2.0	12	·	-5	5.0	·	2	-3.7
